# Screens deposited in PubChem by several laboratories.
# BJeLR lethal: kills HRASV12-expressing BJeLR cells; inhibition, % (concentration not given with the values); BJeLR (HRASV12) viability, CellTiter-Glo ATP luminescence, 48 h; reference of the scale not given here; actives 0.17% (n = 300,000);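 active = replicate mean above 50%; inconclusive = above 50% but judged a plate artefact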;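 note: 50 nL library stock added to about 25 µL; numbers are from one replicate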
# Sa ugtP lethal: compounds lethal to S. aureus RN4220 ugtP deletion mutant. OD600 growth, 16 h; some inactives read as strong as hits. growth inhibition, % (concentration not given with the values). actives 0.54% (n = 330,000). AID 1259309;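 active = z-score under -3 and OD600 up to 0.15 on both plates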;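 note: plate controls were untreated wells for no effect and antibiotic for full effect; wells of about 80 µL received 100 nL stock; the first replicate is given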
# Sa RN4220 lethal: S. aureus RN4220 growth inhibition; actives 0.33% (n = 330,000); AID 1259311; OD600, 16 h; inhibition, % (no concentration beside the values);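 active = z-score of -3 or lower and OD600 up to 0.18 on both plates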;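 note: plate controls were untreated cells for no effect and reference antibiotic for full effect; stock transfer was 100 nL into about 80 µL; one replicate is shown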
# Autofluor counter: counter-screen for toxin protease inhibitors: compound fluorescence. compound autofluorescence counterscreen, microsphere flow cytometry; stronger effect = higher value. fluorescence intensity (no concentration beside the values). actives 3.1% (n = 360,000). AID 624483;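 active = at least 3 SD above the mean of all compounds, about 16000 in these data; inconclusive = too few beads counted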;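 note: 100 nL of 1 mM stock went into each well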
# PrP UTR inh: inhibition of PrP 5' UTR reporter expression; cell-based PrP 5' UTR mRNA reporter, plate reader; inhibition, % (test concentration not listed); actives 0.35% (n = 340,000);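 active = every replicate at 50% or more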;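 note: 0 = median of the neutral control wells; tested in H4 reporter cells; numbers are from one replicate; inactives centre near -14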
# Mtb hypoxia inh: Mtb hypoxia fluorescent reporter inhibition. M. tuberculosis hypoxia-regulated fluorescent reporter, fluorescence. actives 0.1% (n = 300,000). fluorescence inhibition, % (test concentration not listed);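 active = 35 to 45% if threefold the growth effect, above 45% if 1.5-fold the growth effect; inactive = the rest, general growth blockers included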;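 note: wells of about 50 µL received 100 nL stock; 0% = vehicle wells and 100% = reference inhibitor wells; whole bacteria with a GFP reporter of the hypoxia response; strong numbers were not always called active; many hits fall short of the cut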
# Mtb hypoxia inh growth: second read-out of Mtb hypoxia inh, no call of its own (marks repeat the call); growth inhibition, %; measured here: M. tuberculosis growth (absorbance);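 0% = vehicle and 100% = reference antibiotic; read after six days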
# Active calls of the source: *; ? = inconclusive; . = not tested or not shown.
item | SMILES | BJeLR lethal | Sa ugtP lethal | Sa RN4220 lethal | Autofluor counter | PrP UTR inh | Mtb hypoxia inh | Mtb hypoxia inh growth
1 | CCC(=O)N1CCc2cc(S(=O)(=O)CCC(=O)N3CCN(c4ccc(F)cc4)CC3)ccc21 | 8 | 8 | 0.5 | 4525 | -19 | 4 | 1
2 | COc1ccccc1C(CNC(=O)C(C)Oc1ccc(Br)cc1)N1CCCC1 (stereo unspecified) | 0 | -1 | -1.4 | ? | -24 | 4 | 2
3 | COC(=O)C1=C(NC(=O)c2ccc(C)c(C)c2)CCS1 | 2 | 7 | 5.4 | 8127 | -8 | 4 | 7
4 | Cn1c(=O)[nH]c(=O)c2c1nc(CN1CCN(c3ccc(F)cc3)CC1)n2CCCc1ccccc1 | 7 | 11 | 8.3 | 10658 | -18 | 5 | 11
5 | CCOc1ccc(N(CC(=O)NCCCOC)S(C)(=O)=O)cc1 | -2 | -4 | -14 | 3106 | -11 | 6 | 6
6 | CC(=O)N1CCN(c2ccc(NCc3cccc(C)c3)cc2)CC1 | . | 4 | 6.7 | 2894 | -24 | -2 | 1
7 | O=C1OCCC1Sc1nnc(-c2ccc3c(c2)OCO3)n1-c1ccccc1 (stereo unspecified) | -1 | -4 | 1.0 | 4500 | -30 | . | .
8 | CN(CC(=O)Nc1cccc(F)c1)C(=O)C1CC(=O)N(CCc2ccccc2)C1 (stereo unspecified) | -4 | 6 | 0.7 | 5621 | -6 | 4 | 1
9 | Cc1ccc(C)c(COC(=O)c2cc(S(=O)(=O)N3CCCCC3)ccc2N2CCOCC2)c1 | 12 | -3 | -1.0 | 7123 | -28 | 11 | -3
10 | Cc1c(NC(=S)NC(=O)COc2ccccc2)c(=O)n(-c2ccccc2)n1C | -9 | -2 | 7.4 | 10985 | -25 | 7 | 6
11 | O=C(Cn1cnc2c(nc3n2CCCCC3)c1=O)Nc1cccc(C(F)(F)F)c1 | 0 | 3 | 1.5 | 5268 | -1 | -1 | 2
12 | CCn1ncc(Br)c1C(=O)Nc1ccc(OC(F)(F)F)cc1 | 9 | 3 | 4.1 | 3710 | -17 | 8 | -1
13 | CCOc1ccccc1N=C1NC(=O)CS1 | 14 | 1 | 4.1 | 23336* | 1 | 4 | 8
14 | COCCNC(=O)c1ccc(N(C)S(=O)(=O)c2ccc(OC)c(OC)c2)cc1 | -4 | -4 | 0.8 | 4795 | -20 | . | .
15 | CCNC(=O)Nc1cc2nc(C)n(Cc3ccc(Br)cc3)c2nc1C | -9 | 20 | 4.7 | 3542 | -7 | . | .
16 | CC1CCCCN1Cc1ccc(N)cc1 (stereo unspecified) | 2 | -1 | 5.7 | 9545 | -25 | 5 | 9
17 | Cc1ccccc1C(=O)c1cccn1CC(=O)NCc1ccccc1Cl | -2 | 2 | -0.3 | 4198 | -27 | 2 | -2
18 | COc1ccc2c3n([n+]([O-])c2c1)CCN=C3c1ccc(Cl)cc1 | . | 0 | 7.4 | 4876 | -22 | 2 | 8
19 | Cc1ccc(NC(=O)COC(=O)c2ccc(CN3CCCC3=O)cc2)cc1C | . | -5 | 0.4 | . | -2 | -9 | -4
20 | COC(=O)CCC(=O)Nc1ccc(S(=O)(=O)N2CCCCCC2)cc1 | -3 | -8 | -0.4 | 10664 | -5 | -6 | 3
21 | Cc1cc(C)c2[nH]c(=O)c(C(c3nnnn3CC3CCCO3)N3CCC(C)CC3)cc2c1 (stereo unspecified) | 0 | -4 | 4.0 | 26168* | -4 | 5 | 16
22 | CCC(OC(=O)c1nsc(Cl)c1Cl)C(=O)NC(C)(C)CC (stereo unspecified) | -18 | 5 | 5.7 | 3414 | -16 | 15 | 11
23 | Cc1nc2ccc(C(=O)Nc3ccc(N(C)C)cc3)cc2s1 | 1 | 5 | 4.3 | 5968 | -14 | 12 | 11
24 | Cc1cc(C)nc(NS(=O)(=O)c2cccs2)c1 | 5 | 1 | 3.7 | 2744 | -57 | -5 | 10
25 | Cc1ccc(SCC(=O)NNC(=O)CCS(=O)(=O)c2ccc(C)cc2)cc1 | . | 3 | -1.6 | 3081 | -13 | 1 | 3
26 | CCOc1cc(/C=C2/NC(=O)NC2=O)cc([N+](=O)[O-])c1O | -1 | -1 | -1.0 | 2096 | -5 | -6 | 4
27 | CC1CC(C)(C)N(C(=O)NC2CCCCC2)c2ccccc21 (stereo unspecified) | -7 | -4 | 5.2 | 6218 | -19 | 8 | 2
28 | CCN(CC)c1ccc(C(=O)Nn2c(C)nc3ccccc3c2=O)cc1 | -9 | 10 | 2.9 | 3757 | -22 | 16 | -4
29 | Cn1ncc(Cl)c1C(=O)Nc1sc2c(c1C(N)=O)CCC2 | -5 | . | . | 9327 | 7 | . | .
30 | CSc1ccccc1NC(=O)c1ccccc1N(Cc1ccccc1)S(C)(=O)=O | . | 7 | 13 | 19711* | -22 | 5 | -1
31 | Cc1cc(=O)oc2ccc(OC(=O)CN3C(=O)c4cccc([N+](=O)[O-])c4C3=O)cc12 | -5 | 4 | 1.0 | 2214 | -9 | 4 | 7
32 | Cc1ccc(NC(=O)Nc2cnccn2)cc1Cl | 5 | -13 | -0.4 | 1998 | -3 | 12 | 0
33 | CCCCOCCCNC(=O)c1ccccc1OCC | 0 | -4 | 7.2 | 7317 | -19 | 8 | 12
34 | Cc1nc(NC(=O)CN(C)S(=O)(=O)c2ccc(Br)cc2)sc1C | 7 | -9 | 4.8 | 15592 | -17 | 2 | -2
35 | CCC(C)[C@H](NC(=O)C1CCN(C(=O)[C@H](Cc2ccccc2)NS(=O)(=O)c2ccc(C)cc2)CC1)C(=O)O (stereo partly specified) | 5 | 17 | 2.3 | 3612 | -22 | 15 | 5
36 | Cc1cc2ccccc2n1CCNC(=O)C(C)Oc1ccccc1 (stereo unspecified) | 10 | 4 | 26 | 975 | -1 | 6 | 13
37 | COc1cc(/C=N/n2cc(-c3ccccc3)[nH]c2=S)cc(OC)c1O | -12 | . | . | 5007 | -11 | . | .
38 | CCN(CC)c1ncc(C#N)c(N)n1 | -15 | 2 | 5.6 | 5478 | . | 14 | 6
39 | CCOc1ccc(C(C)=NNC(=O)Cc2ccccc2)cc1 | . | 10 | 5.3 | . | . | 18 | 2
40 | O=c1oc2ccccc2c(Nc2ccc3ncccc3c2)c1[N+](=O)[O-] | -17 | 2 | 4.3 | 2479 | -48 | 2 | 2
41 | Cc1ccc(Cl)c(Cn2cnc3c(cnn3C(C)(C)C)c2=O)c1F | . | 12 | 9.1 | 4134 | -16 | 20 | 14
42 | CS(=O)(=O)c1ccc(Cl)c(NC(=O)COC(=O)CCN2C(=O)C3CC=CCC3C2=O)c1 (stereo unspecified) | . | 0 | 0.4 | 3823 | -16 | 0 | 24
43 | O=C(Cc1ccccc1F)Nc1ccc(S(=O)(=O)N2CCCCC2)cc1 | 3 | 2 | -1.8 | 6105 | -11 | -3 | 3
44 | CC(=O)N1c2ccc(S(=O)(=O)N3CCC(C(=O)NCc4ccc(C)cc4)CC3)cc2CC1C (stereo unspecified) | 9 | 13 | 4.6 | 4402 | 2 | 14 | 4
45 | O=C(COc1ccccc1)NC1=NCCS1 | -3 | 0 | 1.9 | 4686 | -24 | -5 | 4
46 | O=C(NC1CCCN(Cc2ccccc2F)C1)c1cccc(N2CCCC2=O)c1 (stereo unspecified) | 3 | 9 | 2.3 | 4391 | 8 | 5 | 2
47 | O=C(NCCc1ccc(Cl)cc1)C1(c2ccccc2)CC1 | 2 | 9 | 2.1 | 3174 | -5 | 1 | 9
48 | CC(CC1C(C#N)=C(N)SC(N)=C1C#N)c1ccccc1 (stereo unspecified) | -3 | -6 | -1.5 | 2693 | -46 | . | .
49 | O=C(CCc1ccccc1)NNC(=O)c1cccc(F)c1 | -4 | 4 | 1.1 | 4150 | -17 | 2 | 8
50 | Cc1ccc(CNC(=O)[C@@H](NC(=O)Cc2ccccc2)C(C)C)cc1 | -3 | 4 | -1.0 | 5454 | -14 | -3 | 11
51 | Cc1ccn2c(CNCC3OCCc4ccccc43)c(C(=O)N3CCCCCC3)nc2c1 (stereo unspecified) | 0 | 1 | 4.2 | 2934 | -17 | 5 | 4
52 | NC(=O)C1C(c2ccccc2)=C1c1ccccc1 | 4 | -2 | 4.7 | 9698 | -16 | 2 | -1
53 | Cc1ccccc1OCC(=O)OCC(=O)NCCNC(=O)COC(=O)COc1ccccc1C | 0 | 8 | 8.2 | ? | -5 | 4 | -2
54 | Cc1ccc(/C=N/NC(=O)c2ccc(OC3CCCC3)cc2)o1 | 1 | . | . | 6236 | -15 | . | .
55 | CCNC(=S)Nc1cc(-c2ccc(Cl)cc2)[nH]n1 | 7 | 10 | 9.9 | 3333 | -14 | 16 | 11
56 | COc1ccccc1CC(=O)NCCCc1ccccc1 | 1 | 10 | 5.6 | 3467 | -26 | 5 | 5
57 | CCSC1=NCCN1C(=O)C(C)(C)Oc1ccc(Cl)cc1 | 6 | 0 | 6.2 | 3284 | -2 | -2 | -3
58 | Cc1ccc(/C=C/C(=O)NC(=S)N2CCN(c3ccc(F)cc3)CC2)cc1 | 4 | -2 | -1.8 | 5962 | -17 | -7 | -12
59 | Cc1ccc(NC(=O)c2c3c(nc4ccccc24)CCC3)cc1 | 2 | -10 | 0.7 | 2305 | -24 | 4 | 12
60 | CC(C)N1C(=O)/C(=C/C=C/c2ccco2)C(=O)N(Cc2ccco2)C1=O | 2 | 2 | 3.7 | 4252 | -32 | -74 | -14

# The results go on.
item | SMILES | BJeLR lethal | Sa ugtP lethal | Sa RN4220 lethal | Autofluor counter | PrP UTR inh | Mtb hypoxia inh | Mtb hypoxia inh growth
61 | Clc1ccc2c(c1)-c1nnc(Br)n1-c1ccccc1S2 | 4 | 47 | 4.6 | 3758 | -9 | 21 | 14
62 | CCCCCN(C(=O)NC(=O)Nc1ccccc1OC)S(C)(=O)=O | -10 | 6 | 6.7 | 11267 | -16 | 10 | 9
63 | COCCNC(=S)N/N=C/c1ccc(-c2ccc([N+](=O)[O-])cc2)o1 | 6 | . | . | ? | -17 | . | .
64 | CC1CN(CC(O)COc2ccc(C(=O)c3ccccc3)cc2)CC(C)O1 (stereo unspecified) | 4 | 3 | -0.2 | 4591 | -5 | . | .
65 | CCN(CC)S(=O)(=O)c1ccc(N2CCCCC2)c(NC(=O)/C=C/c2ccc(OC)c(OC)c2)c1 | -9 | 1 | 3.7 | 2267 | -10 | 4 | 1
66 | CCn1nc(NC(C)=O)c2cc3ccc(C)cc3nc21 | -2 | 1 | 2.9 | 3869 | -16 | -2 | 10
67 | CCN(CC)S(=O)(=O)c1cc(C(=O)NC2CCCCC2)ccc1C | -3 | 0 | 1.7 | 10416 | -37 | 6 | -2
68 | O=c1c2ccccc2c(/C=N/n2cnnc2)c(O)n1-c1ccccc1 | 4 | 3 | 1.3 | 7523 | -20 | 5 | 3
69 | COc1ccc2c(c1)CC/C(=C\c1ccc(OC)c(Cn3cccn3)c1)C2=O | 0 | 4 | 6.7 | 6677 | -27 | 11 | 13
70 | CCN(CC(=O)Nc1ccc(OC)cc1)CC(=O)Nc1ccc2c(c1)OCO2 | . | 4 | 2.7 | 4472 | -2 | 5 | -1
71 | NC(=O)c1ccc(NC(=O)C#Cc2ccccc2)cc1 | 8 | -1 | 3.1 | 3988 | -6 | 7 | 2
72 | COc1ccc(C(=O)N2CCCN(C)CC2)c(OC)c1 | -2 | 2 | 1.8 | 4057 | -11 | 0 | -1
73 | S=c1[nH]nc(-c2ccccn2)n1N=Cc1cccc2ccccc12 | . | -2 | 6.0 | . | . | 7 | 7
74 | CCC(=O)c1cccc2c1N=CC1=C(CC(C)(C)CC1=O)N2 | 0 | -1 | 5.4 | 5406 | -11 | 11 | 5
75 | COc1cc(C(=O)NC2=C(C#N)CCC2)cc(OC)c1OC | 4 | 9 | 0.0 | 2164 | -1 | 3 | 2
76 | O=C(CCNC(=O)c1ccc(Br)cc1)Nc1nccs1 | -4 | 7 | 12 | 4258 | -10 | -7 | 0
77 | CCOC(=O)C1CCCN(C(=O)COc2ccccc2F)C1 (stereo unspecified) | 0 | 3 | 3.9 | 2713 | -13 | 3 | 3
